Screens deposited in PubChem by National Center for Advancing Translational Sciences (NCATS).
Cruzain Triton = cruzain (T. cruzi) inhibition with detergent; P25779; purified cruzain, Z-FR-AMC fluorescence, 0.01% Triton; Potency, µM, without a hit: max response, negative = inhibition, usual class: inhibitors; 200,000 compounds, 0.43% hits; AID 1478;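 further: plate controls were neutral wells for no effect and buffer without enzyme for full effect; nearly all actives have a fitted effect of over 40% in size; top concentration of the series not given in the record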
Target sequence (P25779 123-467 limits assumed): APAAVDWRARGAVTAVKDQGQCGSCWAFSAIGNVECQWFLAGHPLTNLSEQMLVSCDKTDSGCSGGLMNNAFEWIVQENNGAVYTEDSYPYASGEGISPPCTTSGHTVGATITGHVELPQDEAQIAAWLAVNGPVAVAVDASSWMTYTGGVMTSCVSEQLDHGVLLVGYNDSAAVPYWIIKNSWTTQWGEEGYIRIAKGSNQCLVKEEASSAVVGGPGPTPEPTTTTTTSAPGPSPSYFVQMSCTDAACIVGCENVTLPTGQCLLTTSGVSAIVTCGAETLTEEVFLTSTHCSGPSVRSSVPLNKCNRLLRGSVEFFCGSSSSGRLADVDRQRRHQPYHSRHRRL
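Read-out: AMC fluorescence (360 nm excitation, 450 nm emission), four reads over 2 min, first-to-third difference used. Conditions: cruzain 1.5 nM, Z-FR-AMC 2 uM, pH 5.5 acetate, 5 mM DTT, 0.01% Triton X-100.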
RE007 growth inh = less growth of the S. pombe RE007 Vpr strain; S. pombe RE007 Vpr strain, BacTiter-Glo ATP luminescence, 24 h; control for the full effect not named in the record; AID 651644; Potency, µM (doses to about 92.2 µM), inactives show top-dose activity change, negative = less growth; 360,000 compounds, 0.21% hits; active = well fitted falling curve with a large enough effect; inconclusive = small, poorly fitted or top-dose-only effect; inactive = no such curve, though single readings can be large or run the other way;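 further: on the % scale 0 is the no-effect control and ±100 the full control effect; nearly all actives have a fitted effect of over 50% in size; the assay follows cell death caused by Vpr and the record does not say whether a fall means rescue or toxicity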
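Fission yeast RE007 carrying one integrated HIV-1 vpr copy, seeded at OD 0.01 in PMG+AL medium with 23 nL pinned compound. Grown 24 h at 30 degrees; viability read by BacTiter-Glo luminescence after 5 min.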
NS1 inh = influenza NS1 inhibition. Potency, µM (series often up to 46.1 µM), inactives show at the highest dose activity, positive = more growth. 270,000 compounds, 0.4% hits. AID 2326. S. cerevisiae slowed by influenza A NS1, growth recovery by OD600; active means well fitted rising curve with a large enough effect; inconclusive means small, poorly fitted or top-dose-only effect; inactive means no such curve, though single readings can be large or run the other way; further: nearly all actives have a fitted effect of over 50% in size
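In this qHTS, NS1 from influenza A is expressed in budding yeast, where it slows growth. Cells are switched from glucose to 2% galactose medium (pH 6.0, -URA), treated with compound, and growth recovery is read at OD600.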
MARV entry inh = blocks Marburg virus binding to or entry into cells | Marburg virus pseudotyped entry inhibition, cell reporter; control for the full effect not named in the record; about a third of the inactives were read at about 46 µM | Potency, µM (doses to about 37.8 µM), for inactives: top-dose activity change, negative = inhibition, hits mostly inhibitors | 300,000 compounds, 1.8% hits | AID 540276; active = well fitted inhibition curve with a large enough effect; inconclusive = small, poorly fitted or top-dose-only effect, or effect the other way; inactive = flat fitted curve, though single readings scatter; tested in HEK293 cells; about a fifth of its hits are not listed in these tables; further: on the % scale 0 is the no-effect control and ±100 the full control effect; luciferase read-out
Cruzain inh noDet = inhibitors of Trypanosoma cruzi cruzain without detergent. Potency, µM, for inactives: max response, negative = inhibition, hits mostly inhibitors. purified cruzain, Z-FR-AMC fluorescence, no detergent. P25779. 200,000 compounds, 2.3% hits;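 further: plate controls were enzyme without inhibitor for no effect and buffer without enzyme for full effect; nearly all actives have a fitted effect of over 40% in size; top concentration of the series not given in the record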
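Purified cruzain at 1.5 nM, pre-incubated 15 min with compound at room temperature in 100 mM sodium acetate pH 5.5, 5 mM DTT, 0.00005% Triton X-100. Reaction started with 2 uM Z-FR-AMC; AMC fluorescence increase over 60 s gives rate.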
2A StopGo = lowers the luciferase signal of an FMDV 2A StopGo reporter | Potency, µM (titrated, usually from 57.9 µM), for inactives: at the highest dose signal change, negative = less light | human cells with a luciferase reporter of 2A StopGo recoding; control for the full effect not named in the record | 410,000 compounds, 1.2% hits; active = well fitted falling curve with a large enough effect; inconclusive = small, poorly fitted or top-dose-only effect; inactive = no such curve, though single readings can be large or run the other way; tested in HEK293T cells; further: on the % scale 0 is the no-effect control and ±100 the full control effect; nearly all actives have a fitted effect of over 45% in size; luciferase light after 4 h
Lassa entry inh = inhibitors of Lassa virus binding or cell entry; Lassa virus pseudotype entry inhibition, cell reporter; control for the full effect not named in the record; Potency, µM (titrated, usually from 37.9 µM), for inactives: at the highest dose activity change, negative = inhibition, usual class: inhibitors; 300,000 compounds, 1.2% hits; active means well fitted inhibition curve with a large enough effect; inconclusive means small, poorly fitted or top-dose-only effect, or effect the other way; inactive means flat fitted curve, though single readings scatter; tested in HEK293 cells; further: on the % scale 0 is the no-effect control and ±100 the full control effect; nearly all actives have a fitted effect of over 50% in size; luciferase read-out
SARS PLP yeast = blocks SARS-CoV papain-like protease in a yeast assay; Potency, µM (series often up to 32.9 µM), without a hit: at the top dose activity, positive = growth rescue; S. cerevisiae expressing SARS-CoV PLpro, growth rescue; control for the full effect not named in the record; AID 485353; 330,000 compounds, 0.19% hits; active means well fitted rising curve with a large enough effect; inconclusive means small, poorly fitted or top-dose-only effect; inactive means no such curve, though single readings can be large or run the other way; further: 0% is about no effect; nearly all actives have a fitted effect of over 55% in size; growth read by luminescence after 48 h
An asterisk follows results filed as active; u = inconclusive; x = not tested or not shown; & = joins results of further samples; [ ] = another dose, or the depositor's remark. Unless noted, the call rests on the fitted dose curve; in most records, active means well fitted curve in the direction sought with a large enough effect; inconclusive means small, poorly fitted or top-dose-only effect, or another doubt; inactive means no such curve, though single readings can be large; an effect the other way counts as inactive or inconclusive. Potency means the concentration at half of the fitted maximal effect.

SMILES	Cruzain Triton	RE007 growth inh	NS1 inh	MARV entry inh	Cruzain inh noDet	2A StopGo	Lassa entry inh	SARS PLP yeast
Cc1ccc(NC(=S)N(CCN(C)C)Cc2cc3cccc(C)c3[nH]c2=O)cc1	-5.1%	0%	-2%	u	-9%	-21%	1%	14%
CC(=O)Nc1ccc(S(=O)(=O)Nc2cccc(-c3cn4c(n3)SCC4)c2)cc1	x	-8%	x	-1%	x	-4%	15%	4%
O=c1c2[nH]c3ccccc3c2ncn1Cc1ccncc1	1.3%	18%	9%	-5%	-6%	-7%	-4%	4%
Cc1ccc(NC(=O)CSc2nnc(NC(=O)C3CC3)s2)cc1C	x	1%	-1%	u	x	3%	x	0%
CCOc1ccc(S(=O)(=O)N(CC(=O)NCC2CCCO2)c2ccc(F)cc2)cc1 (stereo not given)	x	1%	5%	0%[46.1 µM]	x	-12%	u	0%
CC12CN(C(=O)c3ccc([N+](=O)[O-])cc3)CC(C)(CN(C(=O)c3ccc([N+](=O)[O-])cc3)C1)C2=O	x	-8%	4%	x	x	23%	x	1%
O=C(Nc1nnc(C2CCCC2)s1)C1CCC1	1.0%	-6%	-9%	5%[46.1 µM]	2%	50%[activator]	21%	8%
CC/C(C)=N/Nc1ccc(S(=O)(=O)N2CCCC2)cc1[N+](=O)[O-]	-6.6%	20%	18%	u	8%	-15%	u	2%
CN(C)c1ccc(CNC(=O)C2CCCN(S(=O)(=O)c3ccc4c(c3)oc(=O)n4C)C2)cc1 (stereo not given)	0.1%	x	x	-1%[46.1 µM]	-1%	0%	20%[46.1 µM]	x
Cc1ccc(NC(=O)CCCc2nnc3n(C)c(=O)c4sccc4n23)cc1F	-0.1%	x	x	18%[46.1 µM]	-9%	1.3µM*	u	x
COC(=O)c1ccccc1NC(=O)NCc1cccnc1	-3.7%	2%	-4%	2%	16%	3%	2%	-1%
COCCNC(=O)CN(c1ccc(C)cc1)S(=O)(=O)c1ccccc1	4.1%	-8%	2%	-2%	-6%	-2%	7%	-5%
O=C1ON=C(c2ccccc2)/C1=C/c1ccccc1	x	18%	12%	x	x	u	x	1%
COc1cnn(-c2cccc(C(F)(F)F)c2)c(=O)c1Cl	x	45%	x	27%[14.2 µM]	x	-2%	-6%	x
COc1ccc(NC2=CC(c3ccccc3)N(c3ccc(OC)cc3)C2=O)cc1 (stereo not given)	2.1%	14%	7%	-10%&-10%&-10%[14.2 µM]	-11%	-4%	-8%[14.3 µM]	-1%
Cc1cccc(C)c1NC(=O)c1cccc(C(=O)Nc2c(C)cccc2C)n1	x	4%	x	u	x	-5%	10%[46.1 µM]	x
c1ccc(Oc2cccc(CN3CCOCC3)c2)cc1	1.0%	18%	-2%	-1%	8%	-17%	9%	5%
CCC(=O)Nc1ccc(C(=O)COC(=O)CCN2C(=O)C3CC=CCC3C2=O)cc1 (stereo not given)	x	14%	x	0%[46.1 µM]	x	-11%	6%	-2%
Oc1ccccc1Cn1c(-c2ccccc2O)nc2ccccc21	-27%	-2%	-6%	8%	26%	-13%	-9%	x
COc1ccccc1CNC(=O)CCn1nc(C)c2c(C)n(-c3ccccc3)nc2c1=O	-0.9%	x	x	x	1%	-1%	15%[46.1 µM]	x
Cc1ccc(NC(=O)CCC(=O)N/N=C/c2cc([N+](=O)[O-])ccc2O)cc1	-1.9%	14%	-3%	u	u	0%	u	20%
CN(Cc1ccccc1)C(=O)CN1CCCC1=O	x	3%	6%	x	x	-2%	x	-3%
CN1C(=O)CC(C(=O)Nc2ccc(C(=O)O)cc2)SC1=Nc1ccc(Cl)cc1 (stereo not given)	-2.8%	x	x	x	-1%	-5%	2%[46.1 µM]	x
Cc1c(OCC(=O)N2C[C@H]3C[C@@H](C2)c2cccc(=O)n2C3)ccc2c3c(c(=O)oc12)CCC3	x	0%	19%	x	x	0%	x	11%
O=C(CN1C(=O)NC2(CCCC2)C1=O)OCCOc1ccc(Br)cc1	x	1%	x	-1%	x	-29%	3%	1%
CCOc1ccccc1N(C(=O)CNS(=O)(=O)c1ccccc1)C(CC)C(=O)NCc1ccco1 (stereo not given)	1.8%	-9%	-4%	u	3%	x	-20%	0%
COc1ccc(CCNC(=O)/C=C\c2ccccc2)cc1OC	2.2%	20%	-14%	0%	6%	0%	1%	14%
COC(=O)c1cc(-c2ccc(OC)cc2)on1	x	-20%	-49%	-7%[46.1 µM]	x	-17%	0%	-5%
CC(=O)N1C(=O)/C(=C2\SC(=S)N(c3c(C)n(C)n(-c4ccccc4)c3=O)C2=O)c2ccccc21	-2.7%	2%	13%	16%	-1%	u	4%	-23%
CCCCN(N=Nc1nonc1OC)c1nonc1OC	-9.0%	-11%	-54%	11%	1%	-28%	-13%	-7%
CCc1c(O)nc(SCC(=O)Nc2ccc3c(c2)CCC3)[nH]c1=O	1.0%	16%	u	-2%	-12%	0%	14%	u
O=C(OCc1ccc(Cl)cc1)c1cnccn1	6.9%	6%	-4%	4%	2%	4%	4%	-4%
COc1ccc(C(=O)Nc2nc3cc(OC)c(OC)cc3c(=O)[nH]2)cc1	1.2%	12%	-6%	u	-24%	1%	-18%	-2%
CC(=O)c1cccc(N(C(=O)c2cnccn2)C(C(=O)NCc2ccccc2)c2ccco2)c1 (stereo not given)	0.9%	-1%	-5%	-16%	-3%	2%	2%	3%
Cc1ccc(NC(=O)NNC(=O)COc2ccc([N+](=O)[O-])cc2)cc1C	x	22%	-54%	-5%	x	-4%	-24%	-4%
CCn1nc(C(=O)Nc2cc(Cl)ccc2-n2cncn2)c2ccccc2c1=O	x	17%	x	3%	x	-10%	-11%[46.1 µM]	-1%
O=C(c1cccnc1)N1CCCc2ccccc21	3.6%	-3%	4%	u	-15%	-2%	-20%[14.3 µM]	3%
O=C(c1ccc(-n2cncn2)c([N+](=O)[O-])c1)N1CCN(S(=O)(=O)c2ccc(F)c(F)c2)CC1	x	8%	x	-5%	x	-9%	5%	-6%
Cc1cccc(Cn2c(CN3CCC(C(=O)NCCc4ccccc4)CC3)cc3ccccc32)c1	-3.1%	x	x	x	4%	-15%	u	x
CCOC(=O)C1CCCN(C(=O)c2ccc3[nH]c4c(c3c2)CC(C)CC4)C1 (stereo not given)	x	20%	x	-26%	x	-10%	-17%	-2%
Cc1cc(NCC(c2ccccc2)c2ccccc2)n2ncnc2n1	x	0%	-7%	u	x	-13%	u	-1%
O=C(Nc1ccc2c(c1)OCO2)C1CC1	x	10%	x	u	x	43%[activator]	5%	1%
CN(C)CCCN(C(=O)c1nc2ccccc2s1)c1nc2ccc(F)cc2s1	x	-6%	x	-1%[46.1 µM]	x	-14%	-2%	x
CCOc1ccc(N(CCC#N)S(=O)(=O)c2ccc(OC)cc2)cc1	-1.2%	1%	-27%	u	-3%	-8%	u	1%
Cc1cc(Br)ccc1NC(=O)CSc1c2c(nc3ccccc13)CCC2	0.7%	x	x	u	u	u	-1%[46.1 µM]	x
C/C(=C\C1CCCCC1)C(NC(=O)c1ccc(C(F)(F)F)cc1)c1ccc(-c2ccccc2)cc1 (stereo not given)	0.4%	-3%	x	x	u	-5%	x	x
CCCc1nn2c(=O)cc(COC(=O)c3ccc(NC(=O)COc4ccccc4)cc3)nc2s1	-0.3%	x	x	x	0%	-6%	19%[46.1 µM]	x
O=S(=O)(NCCC1=CCCCC1)c1ccc(Br)cc1	x	8%	-48%	9%	x	37%[activator]	u	1%
Nn1c(SCC(=O)Nc2ccc3c(c2)CCC3)nnc1C1CC1	x	-22%	x	-14%	x	2%	23%	13%
O=C(CCc1c[nH]c2ccccc12)NCCc1ccc(O)cc1	x	-11%	-1%	8%[46.1 µM]	x	12%	u	-2%
S=C(Nc1ccccc1)N1CCn2cccc2C1c1cccnc1 (stereo not given)	0.3%	6%	1%	0%	-8%	-19%	-9%	-2%
Cc1[nH]nc(-c2ccc(OCc3cnn(-c4ccccc4)c3)cc2O)c1Oc1ccccc1F	1.9%	9%	15%	16%	20µM*	-11%	-8%	6%
CCCNC(=O)Cn1c(=O)oc2cc(S(=O)(=O)N3CCCC3)ccc21	x	-2%	-12%	x	x	-9%	x	3%
CC(=O)Nc1ccc(S(=O)(=O)Nc2nc3n(n2)C(c2ccccc2)C=C(c2ccc(Cl)cc2)N3)cc1 (stereo not given)	-4.7%	x	x	x	11%	-18%	4%[46.1 µM]	x
Cn1cc(Cl)c(C(=O)Nc2nccs2)n1	x	1%	0%	21%[46.1 µM]	x	18%	6%[46.1 µM]	-1%
COc1ccccc1N1CC(C(=O)Nc2nnc(SCC(=O)N3CCCC3)s2)CC1=O (stereo not given)	x	7%	x	-14%	x	-7%	26%	x
O=C(CN1CCN(c2ncc(C(F)(F)F)cc2Cl)CC1)NC(=O)NCc1ccccc1	-2.4%	-8%	4%	-2%&-6%	-3%	x	-21%	3%
CN(CC(=O)Nc1ccccc1Cl)C(=O)COC(=O)c1nc(Cl)ccc1Cl	x	1%	x	11%	x	-17%	22%	3%
CSCCC(NC(=O)c1ccco1)C(=O)NC1CCCCCC1 (stereo not given)	x	-13%	x	u	x	13%	14%	1%
COc1ccc(CCN(CC(=O)NC(C)(C)C)C(=O)Cn2nnc(-c3ccc(C)o3)n2)cc1OC	x	8%	x	-7%[46.1 µM]	x	16%	-2%	-7%
Next section
SMILES	Cruzain Triton	RE007 growth inh	NS1 inh	MARV entry inh	Cruzain inh noDet	2A StopGo	Lassa entry inh	SARS PLP yeast
COc1ccc(/C=N/NC(=O)c2ccccc2OC)cc1COc1ccccc1[N+](=O)[O-]	x	30%	-33%	u	x	-19%	1%	10%
O=C1NCCC/C1=N\Nc1ccc(Br)cc1	x	57%	-6%	u	x	34%[activator]	9%	-1%
CCN(CC)S(=O)(=O)c1ccc(/C=C/C(=O)OCC(=O)Nc2ccc(S(N)(=O)=O)cc2)cc1	-7.6%	14%	22%	0%	u	u	20%	12%
COCc1ccc(CN2CCCC(CO)(Cc3cccc(Cl)c3)C2)o1 (stereo not given)	x	-16%	0%	u	x	-24%	-7%[46.1 µM]	0%
COc1ccc(C(=O)OCC(=O)N2C(C)CCCC2C)cc1[N+](=O)[O-] (stereo not given)	x	22%	x	15%[46.1 µM]	x	7%	5%[46.1 µM]	4%
